From PubChem BioAssay
NPYLR7 ag: agonists of mosquito NPYLR7 receptor, primary screen, cell-based, Aedes aegypti, calcium fluorescence, mosquito biting behavior. Aedes aegypti neuropeptide Y-like receptor 7 (NPYLR7). HEK293T NPYLR7/Galpha15, GCaMP6s calcium fluorescence. activation, % at 10 µM. 0.15% of 270,000 active. AID 1259423, 2018; in the data active = activation above about 40%;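 also: 0% = vehicle and 100% = reference agonist at the receptor; some compounds past the cut are filed as inactive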
NPYLR7 ag max-min: also measured in NPYLR7 ag; calls as there; activation, %; measured here: Max-Min RFU normalised activation; some inactives read as strong as hits;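 span of the calcium signal over five minutes; 0% = vehicle and 100% = native peptide agonist; compound fluorescence can raise it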
* hit, by the source's call; & = joins results of further samples. Not all compounds are listed; count on the stated rates, not on these rows.

structure	NPYLR7 ag	NPYLR7 ag max-min
O=C(CN1CCCC(Cc2ccc(F)cc2)C1)NCc1cccs1 (centres undefined)	7.1	6.2
CCOc1cc(C(=S)N2CCOCC2)cc(Cl)c1OS(=O)(=O)c1ccccc1	6.2	13.3
O=C(Nc1cccc(CSC2CCCCC2)c1)c1n[nH]c(=O)[nH]1	3.9	1.6
COC(=O)c1c(N2C(=O)CC(Sc3ccccc3C(=O)O)C2=O)sc(C)c1C (centres undefined)	-5.7	-8.7
O=C(Nc1ccc(OCC(F)(F)F)cc1)c1cccc(NC(=O)C2CCCO2)c1 (centres undefined)	-3.6	-5.1
Cn1c(NNC(=O)c2cccc3ccccc23)cc(=O)n(C)c1=O	5.7	4.5
COc1cc(/C=C(\C#N)c2nn(CCO)c(N)c2C#N)cc(Br)c1OC	-2.5	-1.9
COC(=O)C1=C(C)NC2=C(C(=O)CCC2)C1c1ccc(N(C)C)cc1 (centres undefined)	-2.7	-5.0
Cc1ccc2c(c1)CCCN2C(=O)CCCn1nc(-c2ccco2)ccc1=O	3.5	4.6
Cc1ccc2c(c1)N(C(=O)Cn1c3ccccc3c3ncn(Cc4ccccc4)c(=O)c31)CCO2	-5.0	-7.5
Cc1ccc(-n2nc(C(=O)N3CCCC(C(=O)N(C)C)C3)c3c2CCC3)cc1 (centres undefined)	8.7	5.6
NC(=O)COC(=O)c1ccc(-c2ccc(C(=O)OCC(N)=O)s2)s1	4.1	12.1
O=C(CCn1cnc2ccccc2c1=O)NC1CCCN(Cc2ccc(Cl)cc2)C1 (centres undefined)	0.5	-2.0
Cc1ccc(-c2noc(-c3cccn(CC(=O)Nc4ccc(C)cc4C)c3=O)n2)cc1	2.1	-0.4
COCCN(CC(=O)N(CCc1c[nH]c2ccccc12)Cc1ccccc1OC)C(=O)c1ccc(OC)cc1	13.6	9.0
CCCNC(c1ccc(F)cc1)c1cccnc1 (centres undefined)	10.9	6.4
Cc1nc(NCCNS(=O)(=O)Cc2ccccc2)cc(-n2ccnc2C)n1	-14.4	-19.1
NCc1nnc2ccccn12	3.2	1.5
CCN(CC)S(=O)(=O)c1ccc(C)c(NC(=O)[C@@H]2CCCN2C(=O)c2ccco2)c1	3.2	-1.4
Cc1cc(Br)ccc1NC(=O)CN(C)C(C)C(=O)Nc1ccnn1C(C)C (centres undefined)	-0.8	-1.2
Cc1ccc(OCCNC(=O)N2CCN(S(=O)(=O)c3ccccc3Cl)CC2)c(C)c1	46.1*	47.6*
CCn1ccnc1CN(C)Cc1sccc1C	-2.2	-1.8
O=C1/C(=C2\CCn3cccc32)Cn2cccc21	18.4	14.1
Cc1ccccc1CN1CCN(Cc2nc3ccccc3c(=O)[nH]2)CC1	18.0	9.0
Cn1nc(-c2cccc(NC(=O)c3ccccc3C(F)(F)F)c2)ccc1=O	0.9	-0.8
Clc1ccc2nnc(Cc3ccccc3)n2n1	-7.2	-1.6
Cc1ccsc1-c1cn(C(CO)Cc2ccc(Cl)cc2)nn1 (centres undefined)	17.8	12.1
O=C(Cn1nnc(-c2cccs2)n1)NC12CC3CC(CC(C3)C1)C2	-3.1	-5.7
Cc1cccc2c(-c3nc(C(N)=O)cs3)c[nH]c12	19.8	10.2
O=c1[nH]c2ccccc2nc1/C=C\c1cccnc1	-0.4	-2.3
CSc1cccc(NC(=O)c2csc(COC(=O)c3ccccc3)n2)c1	-7.0	-12.7
CC(C)(C)CC(=O)ON=C(N)c1ccncc1	-3.6	-8.6
COCCN(Cc1ccccc1OS(=O)(=O)c1ccc(F)cc1)C(=O)NC(C)C	-2.7	24.0
Cc1ccccc1NC(=O)C(=O)N1CCCC(OCc2cccnc2)C1 (centres undefined)	-2.1	-2.8
CCCn1cc(CN2CCC(CO)(Cc3ccccc3Cl)CC2)c(C)n1	10.5	2.9
COc1cccc(NC(=Nc2nc(C)cc(C)n2)NC(=O)Nc2ccc(Cl)cc2)c1	0.7	-5.0
CC(C)C1CN(C(=O)C(=O)c2cccnc2)CCCN1CC1CC1 (centres undefined)	-2.8	0.2
CCN(CC)CCN(C)C(=O)c1cc(COc2ccc(C)c(C)c2)on1	1.6	-1.5
CC1(C)CC1(CNC(=O)Cn1ccc(=O)[nH]c1=O)c1ccccc1 (centres undefined)	-1.0	-12.9
Cc1c(F)cc(C(N)=O)cc1NCC(=O)NCc1cccs1	-3.0	22.1
Cc1cc[n+](-c2nc3ccccc3nc2NS(=O)(=O)c2cccs2)cc1C	0.6	5.8
O=C(c1ccc(CSc2nc3ccccc3o2)cc1)N1C2CCC1CC(Oc1ccc(F)cc1F)C2 (centres undefined)	2.8	-4.7
COc1ccc(N2C(=N)C(C)(C)NC2=O)cc1	3.4	6.4
CCCc1c(C(=O)N2CCN(c3nc4nccc(-c5ccc6c(c5)OCO6)n4n3)CC2)cnn1-c1ccccc1	3.2	-0.6
Fc1ccc(-c2nnc3ccc(N4CCCC4)nn23)cc1	14.7	15.1
Cc1noc(-c2ccncc2)c1C(=O)NCCc1ccc(F)cc1	6.1	4.0
CCc1ccc2oc(-c3ccc(NC(=O)c4ccc(OC)c(Br)c4)cc3)nc2c1	-8.2	-12.9
CN(C)c1cccc2c(S(=O)(=O)N3CC[C@H]4NC(=O)N(Cc5ccccc5)C(=O)[C@H]43)cccc12	-7.0	-16.1
COC(=O)CCCCC(=O)N1CCN(CC(OCc2cccc(C)c2)c2ccc(Cl)cc2)CC1 (centres undefined)	0.0	-2.4
Cc1[nH]n(-c2ccccc2)c(=O)c1C1=C([n+]2ccccc2)C(=O)N(c2cccc(Cl)c2)C1=O	7.6	5.1
CC(C)NC(=O)[C@@H]1C[C@H](N)CN1C(=O)CCCc1ccccc1	1.6	-7.6
CC(C)c1ccccc1OC1CC2CCC(C1)N2C(=O)c1ccc(CSc2nc3ccc([N+](=O)[O-])cc3s2)cc1 (centres undefined)	-8.1	-11.4
CC(=CC(=O)C(F)(F)F)NCC1CCCO1 (centres undefined)	3.3	-2.5
COc1[nH]c2ccc(F)cc2c1C(=O)OCC1CCN(CCNS(C)(=O)=O)CC1	-4.0	-19.1
CC(c1ccccn1)N(C)Cc1cc(C(C)(C)C)n[nH]1 (centres undefined)	10.3	6.6
CNC(=O)c1cccc(CNc2cc(OC)ncn2)c1	4.2	3.8
O=c1[nH]cc(CNCc2ccccc2)c(=O)[nH]1	19.5	6.3
CC[C@H](C)[C@H](NC(=O)CCc1nnc(CCc2ccc(OC)cc2)o1)C(=O)OC	-1.8	-1.2
CC(OC(=O)Cc1csc(N2CCCC2=O)n1)C1CCCCN1C(=O)OC(C)(C)C (centres undefined)	-3.8	-6.6
O=C(c1ccc2c(c1)OCO2)N1CCC(n2nc(-c3ccccc3)cc2-c2ccccc2)CC1	2.9	0.1

Among those listed so far, 3 have a CF3 group:
structure	NPYLR7 ag	NPYLR7 ag max-min
O=C(Nc1ccc(OCC(F)(F)F)cc1)c1cccc(NC(=O)C2CCCO2)c1 (centres undefined)	-3.6	-5.1
Cn1nc(-c2cccc(NC(=O)c3ccccc3C(F)(F)F)c2)ccc1=O	0.9	-0.8
CC(=CC(=O)C(F)(F)F)NCC1CCCO1 (centres undefined)	3.3	-2.5

Returning to the listing, starting four compounds before the break.
structure	NPYLR7 ag	NPYLR7 ag max-min
O=c1[nH]cc(CNCc2ccccc2)c(=O)[nH]1	19.5	6.3
CC[C@H](C)[C@H](NC(=O)CCc1nnc(CCc2ccc(OC)cc2)o1)C(=O)OC	-1.8	-1.2
CC(OC(=O)Cc1csc(N2CCCC2=O)n1)C1CCCCN1C(=O)OC(C)(C)C (centres undefined)	-3.8	-6.6
O=C(c1ccc2c(c1)OCO2)N1CCC(n2nc(-c3ccccc3)cc2-c2ccccc2)CC1	2.9	0.1
COc1ccc(Cn2c(C(C)C)nc3sc4ccccc4c(=O)c3c2=O)cc1	5.6	3.9
COC(=O)c1cn(C(=O)C(C)Sc2ccc(C)cc2)c2ccccc12 (centres undefined)	-3.2	-6.9
Cc1c(CSc2nc3sc4c(c3c(=O)[nH]2)CCCC4)cnn1C	5.0	3.3
CCOC(=O)C1(Cc2ccccc2)CCCN(C(=O)C#Cc2ccccc2)C1 (centres undefined)	4.7&6.2	3.4&6.3
COCC(=O)N1CCN(Cc2cccc(-c3noc(-c4cccnc4)n3)c2)CC1	6.7	0.9
Cn1c(Cc2ccccc2)nn(CN2CCC3(CC2)OCCO3)c1=S	10.0	4.0
CCN(CC)C(=O)Oc1ccc2c(ccn2Cc2ccccc2Cl)c1NC(=O)c1ccc(Cl)c(Cl)c1	-1.2	-3.9
CCNc1nnc(SC(C)C(N)=O)s1 (centres undefined)	2.5	2.2
O=C(c1ccc([N+](=O)[O-])cc1)N1CCN(c2cc(Oc3ccc(F)cc3F)ncn2)CC1	6.1	2.7
Cn1ccnc1CN(C(=O)C(O)c1ccc(C(F)(F)F)cc1)C1CC1 (centres undefined)	10.9	7.5
CCCc1nnc(NC(=O)CC(=O)Nc2ccccc2C(=O)O)s1	14.7	12.0
Cc1oc(-c2ccco2)nc1CN(C)Cc1ccc2nsnc2c1	19.9	3.7
CC(C)c1ccc(C2=NC(C)(CC(=O)NCc3nccs3)ON2C)cc1 (centres undefined)	5.3	3.9
O=c1c2cnn(C3CCS(=O)(=O)C3)c2ncn1Cc1ccc(C(F)(F)F)cc1 (centres undefined)	24.5	12.5
O=C(Nc1cccc(-c2nc3ncccc3o2)c1)C1CCC1	-1.3	13.3
CCc1ccc(NC(=O)CSc2nnc(N)s2)cc1	0.7	-3.8
C=C(C)[C@@H]1CC=C(CN2CCC3(CC2)C(=O)N(C2Cc4ccccc4C2)C(=O)N3CCOC)CC1	14.1	-0.2
CC(=O)CC1(O)C(=O)N(Cc2ccc(OC(C)C)cc2)c2c(C)cccc21 (centres undefined)	22.4	12.2
Cc1ccccc1C1c2ccsc2CCN1CC(=O)N1CCN(S(=O)(=O)c2cccc(C(F)(F)F)c2)C(C)C1 (centres undefined)	1.8	-2.5
COCC(NC(=O)CCn1c(C)cc2ccccc21)c1ccccn1 (centres undefined)	7.4	4.4
Cc1cc(C)n(CC(C)CNC(=O)c2cc(Cl)c3c(c2)OCO3)n1 (centres undefined)	0.6	-8.1
Nc1c(-c2nc(-c3ccc4c(c3)OCO4)no2)nnn1-c1ccc(Br)cc1	-0.3	1.3
O=C(c1cccc(N2CCCS2(=O)=O)c1)N1CCCc2cc(C(F)(F)F)ccc21	4.4	-1.3
CC(C)C1CCc2ccccc2N1Cc1nc(N)nc(N(C)C)n1 (centres undefined)	1.5	2.7
O=C(Cn1ncc(Cl)c(Cl)c1=O)NCCc1ccccc1OC(F)F	5.9	5.2
CC(C)Nc1ccc(C(=O)NC2CCCCC2)cn1	9.2	7.3
O=C(NCc1ccncc1)c1ccccc1N1CCC(NS(=O)(=O)c2ccc(Cl)cc2)CC1	-1.1	5.8
Fc1ccc(Cn2c(-c3cc(-c4ccccc4)nc4ccccc34)n[nH]c2=S)cc1	-13.5	-18.4
CC1(C)S[C@@H]2[C@H](NC(=O)[C@H](N)c3ccc(O)cc3)C(=O)N2[C@H]1C(=O)O	-2.3&-6.2	-7.1&-7.1
Cc1c(C(=O)O)sc2nc[nH]c(=O)c12	14.1	17.3
O=C(c1cc2n(n1)CCCN(C(=O)c1cccc3c1OCC3)C2)N1CCCC1	7.9	5.0
Cc1[nH]c2ccccc2c(=O)c1CCC1(C)NCCc2[nH]cnc21 (centres undefined)	-0.7	0.5
O=C1CCCC2=Nc3ncnn3C(c3cn(-c4ccccc4)nc3-c3cccnc3)C12 (centres undefined)	-4.1	-6.5
Cc1ccc(-c2ccnc(NCc3cnn4ccccc34)n2)c(C)n1	4.5	2.7
COc1cc2ccc(=O)oc2c(O)c1O	15.6	4.9
COC(=O)c1ccccc1N(C)C(=O)C(=O)c1c(C)n(C)c2ccccc12	-1.5	-1.9
CCN(c1ccc(C(=O)Nc2ccncc2)cc1)C(C)C	0.1	-0.6
CN1CCN(C(=O)C2CCc3ccccc3N2C(=O)c2ccc(F)cc2F)CC1 (centres undefined)	8.1	3.7
Cc1ccoc1C(=O)N1CCCC(O)(CN(C)C)CC1 (centres undefined)	9.9	10.0
CNC(=O)c1ccc(-c2ccnc3c2ccn3C)o1	15.4	3.7
C[C@@H]1CN(CC(=O)Nc2ccc3c(c2)Cc2cccc(-c4cc(=O)cc(N5CCOCC5)o4)c2S3)C[C@H](C)O1	-8.1	-16.0
O=C(O)CS(=O)(=O)Cc1cccs1	5.8	1.6
CC(=O)c1cc(C(=O)N2CC(=O)N(C3CCCCC3)CC(OCc3ccccc3)C2)[nH]n1 (centres undefined)	-4.0	-14.6
O[C@@H]1CNCC[C@H]1CNCc1ccc(-c2ccccn2)cc1	1.8	2.4
CC(C)OC(=O)CCNC(=O)C1(C#N)CCCC1	6.4	4.8
CCSc1cncc(N2CCC(c3ccc(OC)cc3)C2)n1 (centres undefined)	8.6	6.6
Cc1ccccc1NC(=O)CSc1ccc(-c2ccc(-n3ccnc3)cc2)nn1	16.0	14.7
COC(=O)C1C(=O)C2=C(CC1C)N=C(C)C(C(=O)OC1CCCC1)C2c1cccs1 (centres undefined)	-2.2	-1.9
CC1CCc2c(sc3ncnc(SCC(=O)N(C)C4CCS(=O)(=O)C4)c23)C1 (centres undefined)	2.7	8.7
